A488 autofl = compound fluoresces in the A488 spectral region. AID 591. max dye equivalency, M. compound autofluorescence, A488 spectral region, dye equivalency; stronger effect = higher value. 59,000 tested, 0.1% active; active = above 10 nM dye equivalent; inconclusive = 1 to 10 nM; inactive = 1 nM or less; about half of its hits are not listed in these tables;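 note: highest value over a series up to 38 µM; compound alone in buffer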
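Read-out: relative fluorescence at 480/540 nm, expressed as Alexa 488 dye-equivalent concentration from a six-point A488 standard included per plate. Conditions: 100 mM Tris, pH 8.0; 15 min incubation, room temperature.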
AID923 = qHTS Assay for Allosteric/Competitive Inhibitors of Caspase-1: Spectroscopic Profiling in AFC Spectral Region; compound fluorescence, AFC spectral region (405/520 nm); almost no hit is shown here; Potency, µM (top dose mostly 57.5 µM), for the others: at the highest dose fluorescence increase, usual class: activators; 75,000 tested, 1.1% active; active = well fitted activation curve with a large enough effect; inconclusive = small, poorly fitted or top-dose-only effect;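 note: potency is the fitted concentration of half-maximal effect; 0% is about no effect; scaled to a free AFC standard on each plate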
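Compound autofluorescence profiled at 405 nm ex/520 nm em during kinetic caspase 1 run (50 nM enzyme, 5 uM Ac-WEHD-AFC, HEPES pH 7.5, 10 mM DTT). Titration up to 57 uM; baseline from regression intercept, normalized to AFC standard curve.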
A647 autofl = A647 region autofluorescence | Compound fluorescence, A647 channel (570/671 nm), Tris buffer | max dye-equivalent concentration, M | 59,000 tested, under 10 active; active means above 1 µM dye equivalent; inconclusive means 0.1 to 1 µM; inactive means 0.1 µM or less;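 note: values scaled relative to a standard on each plate; highest value over a series up to 38 µM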
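Tris 100 mM pH 8.0; cpd + A647 stds pin-transferred; 15 min RT; CCD imager, ex 570/em 671. Output = A647-equivalent conc. per cpd conc.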
Resorufin fluor = resorufin region autofluorescence | Compound fluorescence, resorufin region 547/598 nm, buffer; stronger effect = higher value | max dye-equivalent concentration, M | 59,000 tested, 0.04% active | AID 588; active = above 10 nM dye equivalent; inconclusive = 1 to 10 nM; inactive = 1 nM or less; a few of its hits are not listed in these tables; note: highest value over a series up to 38 µM
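Compounds in 100 mM Tris, pH 8.0, incubated 15 min at room temperature, then fluorescence read at 547 nm excitation/598 nm emission. Signal converted to dye-equivalent concentration via an on-plate six-point resorufin standard curve, per compound concentration.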
TSHR agonist = TSH receptor (human) agonism. HEK293-CNG-TSHR cells (CNG channel as cAMP sensor), membrane potential dye, cAMP. Potency, µM (top dose mostly 57.1 µM), without a hit: at the highest dose activation, usual class: activators. AID 926. P16473. 73,000 tested, 0.48% active; active = well fitted activation curve of enough size with the parental cells flat; inconclusive = any curve in the parental cells; inactive = parental cells flat and receptor cells flat or falling; note: potency is the fitted concentration of half-maximal effect; % of control where 0% means no effect; weak receptor curves with flat parental cells got no call and are not listed
Target sequence (P16473 whole entry, looked up): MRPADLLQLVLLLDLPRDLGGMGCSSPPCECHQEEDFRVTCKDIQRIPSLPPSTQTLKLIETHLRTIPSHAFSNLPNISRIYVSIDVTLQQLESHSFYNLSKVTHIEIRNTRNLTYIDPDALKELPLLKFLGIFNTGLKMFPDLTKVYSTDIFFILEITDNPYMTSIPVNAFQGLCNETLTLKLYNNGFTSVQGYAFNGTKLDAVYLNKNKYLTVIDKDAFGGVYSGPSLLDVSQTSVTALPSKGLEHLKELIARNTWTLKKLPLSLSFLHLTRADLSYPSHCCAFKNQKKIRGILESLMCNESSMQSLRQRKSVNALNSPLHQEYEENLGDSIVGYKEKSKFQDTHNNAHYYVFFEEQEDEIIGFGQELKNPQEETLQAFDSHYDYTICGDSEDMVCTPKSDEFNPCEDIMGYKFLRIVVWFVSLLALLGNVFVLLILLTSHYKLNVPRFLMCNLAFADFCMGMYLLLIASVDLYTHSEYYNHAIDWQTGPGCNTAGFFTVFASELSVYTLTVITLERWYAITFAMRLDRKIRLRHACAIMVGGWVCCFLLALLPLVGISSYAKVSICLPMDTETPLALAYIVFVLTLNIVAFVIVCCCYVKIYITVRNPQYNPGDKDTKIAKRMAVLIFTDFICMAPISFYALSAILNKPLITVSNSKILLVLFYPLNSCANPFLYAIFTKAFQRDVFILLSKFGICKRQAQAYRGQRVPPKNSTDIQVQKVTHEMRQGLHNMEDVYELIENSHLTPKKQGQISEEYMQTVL
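HEK 293 cells stably expressing TSHR and a cAMP-gated CNG channel; parental CNG-only cells as counterscreen. Cells preloaded 60 min with membrane potential dye plus 100 uM RO 20-1724, then compound 30 min; fluorescence read at 590 nm.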
An asterisk follows results filed as active; i = inactive; ? = inconclusive; / = no result given; [ ] = dose if it differs, or a comment.

SMILES	A488 autofl	AID923	A647 autofl	Resorufin fluor	TSHR agonist
CCOP(=O)(c1c(F)c(F)c(F)c(F)c1F)C1(O)CCCCC1 (stereo not drawn)	i	-1.5%	3.38e-08	i	-1.4%
COc1ccc(N=Cc2c(O)[nH]c3ccccc23)cc1OC	i	3.9%	1e-09	i	-9.4%
COC(=O)CN(c1nc(C)cc(OC)n1)S(=O)(=O)c1ccccc1	i	/	9.16e-08	i	/
Cc1noc(/C=C/N(C)C)c1S(=O)(=O)N1CCCC(C(=O)NC2CCCCC2)C1 (stereo not drawn)	/	0.0%	/	/	5.9%
C#CCC(C(=O)OC)(C(=O)OC)C(C[N+](=O)[O-])c1ccccc1 (stereo not drawn)	/	-1.2%[11.5 µM]	/	/	7.7%[11.4 µM]
COc1ccc(-n2c3c(cc(C(=O)N4CCCCC4)c2=O)C(=O)CC(C)(C)C3)cc1	i	-0.9%	1e-09	i	?
CC(C)NC(=O)N1CCOCCOCCN(C(=O)NC(C)C)CCOCCOCC1	i	/	2.3e-09	i	/
COc1ccc(N(CC(=O)NC(C)(C)C)C(=O)c2ccco2)cc1	i	-0.1%	2.8e-08	i	9.1%
Cc1cc(C)cc(N(CC(=O)N2CCC(C)CC2)S(C)(=O)=O)c1	i	-1.2%	4.3e-09	i	9.0%
CCOC(=O)Nc1ccccc1C(=O)N1CCOCC1	/	0.8%	/	/	-6.9%
c1ccc2c(c1)OCC(c1csc3ncnc(N4CCOCC4)c13)O2 (stereo not drawn)	/	-3.7%	/	/	10.7%[11.4 µM]
CC(C)N(Cc1nc2ccccc2[nH]1)C(C)C	/	2.6%	/	/	-2.9%

Part of the list above in order of length of the SMILES, lowest first:
SMILES	A488 autofl	AID923	A647 autofl	Resorufin fluor	TSHR agonist
CCOC(=O)Nc1ccccc1C(=O)N1CCOCC1	/	0.8%	/	/	-6.9%
COc1ccc(N=Cc2c(O)[nH]c3ccccc23)cc1OC	i	3.9%	1e-09	i	-9.4%
CCOP(=O)(c1c(F)c(F)c(F)c(F)c1F)C1(O)CCCCC1 (stereo not drawn)	i	-1.5%	3.38e-08	i	-1.4%
Cc1cc(C)cc(N(CC(=O)N2CCC(C)CC2)S(C)(=O)=O)c1	i	-1.2%	4.3e-09	i	9.0%
C#CCC(C(=O)OC)(C(=O)OC)C(C[N+](=O)[O-])c1ccccc1 (stereo not drawn)	/	-1.2%[11.5 µM]	/	/	7.7%[11.4 µM]
Cc1noc(/C=C/N(C)C)c1S(=O)(=O)N1CCCC(C(=O)NC2CCCCC2)C1 (stereo not drawn)	/	0.0%	/	/	5.9%

More structures:
SMILES	A488 autofl	AID923	A647 autofl	Resorufin fluor	TSHR agonist
O=C(NCc1cccnc1)C1CCN(S(=O)(=O)N2CCOCC2)CC1	i	-1.9%	4.19e-08	i	8.3%
CCOC(=O)C1C(=O)Oc2ccc3ccccc3c2C1C1CCOC1=O (stereo not drawn)	/	0.7%	/	/	?
Cc1cc(C)cc(NC(=O)C2CCCN(S(=O)(=O)c3cnc[nH]3)C2)c1 (stereo not drawn)	/	2.8%	/	/	4.4%
CN1CCN(c2ccnc(-c3ccoc3)n2)CC1	i	2.5%	1e-09	i	2.9%
CCOC(=O)N1CCC(NC(=O)CS(=O)(=O)Cc2nc(-c3ccccc3C)oc2C)CC1	/	0.6%	/	/	26.6%
Cc1nc2ccccc2c(=O)n1CCCO	/	4.5%	/	/	?
COc1cccc(Cn2c(=O)c(-c3cccc(F)c3)nc3cncnc32)c1	i	9.2%	1.69e-08	i	-2.2%
Nc1c(N2CCOCC2)cc(Cl)c2nonc12	i	3.1%	1e-09	i	-16.3%
CCC(C)Cn1c(C)nc2ccccc21 (stereo not drawn)	i	2.5%	3.33e-08	i	?
Cc1ccc(NC(=O)CC2Oc3ccc(C)cc3NC2=O)cc1 (stereo not drawn)	/	0.0%	/	/	?
CCN1C(C)=C(C(=O)OC)C(c2ccccc2)N2C(=O)[C@@]3(C(=O)OC)O[C@@]12C1C(=O)CCCC13 (stereo partly drawn)	/	0.0%[11.5 µM]	/	/	3.6%[11.4 µM]
c1ccc(-c2noc(CN3CCN(C(c4ccccc4)c4ccccc4)CC3)n2)cc1	i	1.3%	2.98e-08	i	16.9%
O=C(c1ccc2c(c1)N(Cc1ccc(F)cc1)C(=O)CS2)N1CCOCC1	i	1.7%	3.38e-08	i	8.4%
COc1cc(-c2nnc(COc3ccc4ccccc4c3)o2)cc(OC)c1OC	/	0.4%	/	/	?
CCOC(=O)NCCc1ccc(OC)cc1	/	-0.8%	/	/	-1.9%[11.4 µM]
CCOC(=O)c1oc2ccccc2c1NC(=O)Cc1cccs1	i	1.7%	1e-09	i	/
Nc1ccccc1C(=O)/C=C\c1ccc2c(c1)OCO2	/	-0.2%[11.5 µM]	/	/	3.5%[11.4 µM]
Cc1occc1C(=O)Nc1nnc(C(F)(F)F)s1	i	1.1%	2.7e-09	i	1.2%
Brc1ccc(-c2ccccc2)cc1	/	-6.0%	/	/	-4.2%
CCC/C=C(\CCC)C(NS(=O)(=O)c1ccc(Cl)cc1)c1ccccc1 (stereo not drawn)	/	10.5%	/	/	22.4%
CCNCCCNCCCNCCCNCC	/	-0.6%	/	/	1.9%
COc1ccc(OC)c(CNC(=O)C2CCCN(C(=O)N(C)C)C2)c1 (stereo not drawn)	i	-0.8%	1e-09	i	10.7%
CCn1cc(SCC(=O)Nc2cc(C)on2)c2ccccc21	/	-0.8%	/	/	-5.1%[11.4 µM]
CC1NC2(C(=O)N(Cc3ccccc3)c3ccccc32)C2C(=O)N(c3ccccc3)C(=O)C12 (stereo not drawn)	/	-2.7%	/	/	-1.1%
CCCN(CCC)S(=O)(=O)c1ccc(C(=O)Nc2nnc(-c3cc(OC)cc(OC)c3)o2)cc1	i	-1.1%	1.1e-09	i	0.4%
Cc1ccc(N2C(=O)c3ccc(N)cc3C2=O)cc1C	i	13.9%	2.28e-08	i	?
Cc1cc(NC(=O)c2cc(-c3ccccn3)nc3ccccc23)no1	i	1.5%	1e-09	i	24.8%
CCCCC(c1nnnn1C1CCCC1)N1CCN(C2CCCCC2)CC1 (stereo not drawn)	i	1.8%	3.69e-08	i	?
O=C(NCc1ccco1)c1cc(-c2ccncc2)nc2ccccc12	i	-0.3%	4e-09	i	?
Cc1cccc(N=C2NC(=O)CS2)c1C	i	0.4%	8.2e-09	i	-0.6%
O=Cc1ccc(C(=O)O)cc1	/	-0.7%	/	/	-3.1%
CCCCCCN(C(=O)CCCCCN1C(=O)NC(c2ccc(-c3ccccc3)cc2)C(C(=O)OCc2ccccc2)=C1C)C(C(=O)NCCCC)c1ccc(OCC(=O)OC)cc1 (stereo not drawn)	/	3.7%	/	/	-0.7%
CCC(C(=O)N1CCN(c2cccc(Cl)c2)CC1)c1ccccc1 (stereo not drawn)	/	-1.6%	/	/	?
CCC(CCC(=O)Nc1cccc(C(=O)O)c1)C(=O)O (stereo not drawn)	i	-2.2%	2.1e-08	i	-2.2%
COCC(C)NCc1ccccc1C (stereo not drawn)	i	-0.2%	3.8e-09	i	3.1%
CN1CCN(C(=O)c2ccc(N(Cc3ccccc3Cl)S(C)(=O)=O)cc2)CC1	i	-0.7%	1e-09	i	2.7%
CC12CCC(C(=O)Nc3cccc(NC(=O)C45CCC(C)(C(=O)O4)C5(C)C)n3)(OC1=O)C2(C)C	i	1.3%	2.62e-08	i	1.7%
COc1ccc(C2CCCN2C(=O)Nc2ccc(F)cc2)cc1OC (stereo not drawn)	/	1.8%	/	/	9.1%
CN(C)c1ccc(CNC2CC(C)(C)NC(C)(C)C2)cc1	i	0.7%	1.88e-08	i	-6.6%
O=C(Cn1cc2c(n1)CCCC2)NCCCN1CCN(C2CCCCC2)CC1	/	-3.4%	/	/	8.9%
CN(C)CCCNc1oc(-c2ccc(Cl)cc2)nc1C#N	i	0.4%	1e-09	i	7.5%
COc1ccc(NC(=O)c2ccccc2NC(=O)c2ccco2)c(OC)c1	/	1.1%	/	/	16.7%[11.4 µM]
O=C(O)C1CC=CCC1C(=O)NC12CC3CC(CC(C3)C1)C2 (stereo not drawn)	i	1.1%	5.9e-09	i	-5.1%
CN1C(=O)c2cccc(N(C)C)c2C1=O	i	3.6%	2.61e-08	i	1.0%
Cc1cc(N2CCN(C3CCCC3)CC2)n2ncc(-c3ccccc3)c2n1	i	-1.1%	1.29e-08	i	0.5%[11.4 µM]
O=C(NCc1ccco1)Nc1ccc(Br)cc1Cl	i	-0.7%	3.96e-08	i	3.7%
O=S1(=O)C=CC(Nc2cccc(Cl)c2)C1 (stereo not drawn)	i	-1.5%	1.04e-08	i	5.3%
Cc1nc2cnc(N3CCN(C)CC3)nc2n(Cc2cccs2)c1=O	i	0.4%	1e-09	i	?
Cn1c(OCc2cccnc2)nc2c1c(=O)n(Cc1ccc(Br)cc1)c(=O)n2C	i	/	1.4e-09	i	/
CCn1cc(C(C)NC(=O)COc2ccc(Cl)cc2C)c(C)n1 (stereo not drawn)	i	2.1%	4.3e-09	i	17.0%
CC1(C)CC(C(CC(=O)O)c2ccccc2)CCO1 (stereo not drawn)	i	-1.2%	5.6e-09	i	-5.1%
Cn1c(=O)c(C(=O)CSc2nncs2)c(N)n(Cc2ccccc2)c1=O	i	-1.5%	1.28e-08	i	11.2%
CC(C)CCn1c(Sc2nc3ccccc3s2)nc2c1c(=O)[nH]c(=O)n2C	i	0.5%	1e-09	i	17.8%
CC1CCC(NC(=O)Cn2c(=O)[nH]c3ccsc3c2=O)CC1 (stereo not drawn)	i	-0.4%	1e-09	i	-3.9%
O=C(N1CCOCC1)N1CCN(c2nc(-c3ccc(F)cc3)cs2)CC1	i	0.0%	4.9e-09	i	17.7%[11.4 µM]
Cc1c(C(=O)Nc2ccc3c(c2)OCCO3)sc2nc(-c3ccccc3)cn12	i	4.0%	1e-09	i	?
CCOC(=O)c1c(CN2CCN(CCO)CC2)n(C)c2cc(Br)c(OC)cc12	i	/	1e-09	i	/
CCOC(=O)N1CCC(n2c(=S)[nH]c3cc(OCC)c(OCC)cc3c2=O)CC1	i	0.0%	2.78e-08	i	-4.0%
Cn1c(=N)n(CC(=O)O)c2ccccc21	i	-0.7%	2.4e-09	i	2.9%
COC(=O)c1ccc(C2C(C#N)=C(N)Oc3cc(C)n(C)c(=O)c32)cc1 (stereo not drawn)	i	0.0%	1e-09	i	-12.2%

Continuation:
SMILES	A488 autofl	AID923	A647 autofl	Resorufin fluor	TSHR agonist
COc1ccccc1N1C(=O)CCC1(C#N)c1ccccc1 (stereo not drawn)	/	4.1%	/	/	2.6%
Cc1ccc(C(=O)Nc2nccs2)cc1S(=O)(=O)N1CCCCC1	i	-1.0%	1.6e-09	i	15.4%
Cc1cc(=O)[nH]c(SCC2COC3(CCCCC3)O2)n1 (stereo not drawn)	/	2.6%	/	/	-1.4%
Cc1cc(C)nc(N(C#N)Cc2ccc(Br)cc2)n1	i	0.2%	2.7e-08	i	?
O=C(NCc1ccccc1)C1CC2CCCC(C1)C2=O (stereo not drawn)	i	1.3%	1e-09	i	-10.3%
CCCC(CCC(=O)NC1CCCCC1)C(=O)O (stereo not drawn)	i	-0.9%	1e-09	i	-1.2%
CC(NC(=O)c1cccs1)C(c1cccs1)N1CCOCC1 (stereo not drawn)	i	-2.0%	1.41e-08	i	-0.3%
CCOC(=O)c1cnc(SCC(=O)Nc2ccccc2N2CCOCC2)nc1N	i	-1.0%	1e-09	i	4.1%
O=C(O)CCCCCN1C(=O)CSC1=S	i	-0.1%	1e-09	i	-1.4%
CCCNS(=O)(=O)c1ccc(CCC(=O)N2CCOCC2)cc1	i	0.1%	2.38e-08	i	?
Cc1ccc(CNC(=O)c2oc3ccc(S(=O)(=O)N4CCC5(CC4)OCCO5)cc3c2C)cc1	i	0.7%	8.1e-09	i	24.6%[11.4 µM]
Cc1c(CN2CCCCC2C)c(=O)n(-c2ccccc2)n1C (stereo not drawn)	/	-0.6%	/	/	9.2%[11.4 µM]
CCOC(=O)N1CCC(N(CCCOC)C(=O)Nc2ccc(CC)cc2)CC1	i	1.1%	1e-09	i	1.0%

This is a subset; the hit share may differ from the screen's.
